Screening data (PubChem BioAssay)
Lassa entry inh: blocks Lassa virus binding to or entry into cells. Lassa virus pseudotype entry inhibition, cell reporter; control for the full effect not named in the record. Potency, µM (top dose mostly 37.9 µM), without a hit: at the highest dose activity change, negative = inhibition, most hits filed as inhibitors. 1.2% of 300,000 active. AID 540256; active means well fitted inhibition curve with a large enough effect; inconclusive means small, poorly fitted or top-dose-only effect, or effect the other way; inactive means flat fitted curve, though single readings scatter; tested in HEK293 cells; note: % is set by controls: 0 for no effect and ±100 for the full control effect; nearly all actives have a fitted effect of over 50% in size; luciferase read-out
RE007 growth inh: less growth of the S. pombe RE007 Vpr strain. S. pombe RE007 Vpr strain, BacTiter-Glo ATP luminescence, 24 h; control for the full effect not named in the record. Potency, µM (series often up to 92.2 µM), inactives show top-dose activity change, negative = less growth. 0.21% of 360,000 active. AID 651644; active = well fitted falling curve with a large enough effect; inconclusive = small, poorly fitted or top-dose-only effect; inactive = no such curve, though single readings can be large or run the other way;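 note: % is set by controls: 0 for no effect and ±100 for the full control effect; nearly all actives have a fitted effect of over 50% in size; the assay follows cell death caused by Vpr and the record does not say whether a fall means rescue or toxicity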
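Fission yeast strain RE007, carrying one chromosomally integrated HIV-1 vpr copy, was seeded at OD 0.01 in PMG+AL medium with 23 nL pinned compound. After 24 h at 30 °C and 99% humidity, viability was read by BacTiter-Glo luminescence.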
2A StopGo: lowers the luciferase signal of an FMDV 2A StopGo reporter; human cells with a luciferase reporter of 2A StopGo recoding; control for the full effect not named in the record; Potency, µM (series often up to 57.9 µM), for inactives: at the highest dose signal change, negative = less light; 1.2% of 410,000 active; active = well fitted falling curve with a large enough effect; inconclusive = small, poorly fitted or top-dose-only effect; inactive = no such curve, though single readings can be large or run the other way; tested in HEK293T cells; note: % is set by controls: 0 for no effect and ±100 for the full control effect; nearly all actives have a fitted effect of over 45% in size; luciferase light after 4 h
SARS PLP yeast: blocks SARS-CoV papain-like protease in a yeast assay; S. cerevisiae expressing SARS-CoV PLpro, growth rescue; control for the full effect not named in the record; Potency, µM (doses to about 32.9 µM), inactives show top-dose activity, positive = growth rescue; 0.19% of 330,000 active; active means well fitted rising curve with a large enough effect; inconclusive means small, poorly fitted or top-dose-only effect; inactive means no such curve, though single readings can be large or run the other way; note: 0% is about no effect; nearly all actives have a fitted effect of over 55% in size; growth read by luminescence after 48 h
Cruzain inh Det: inhibitors of Trypanosoma cruzi cruzain with detergent; purified cruzain, Z-FR-AMC fluorescence, 0.01% Triton; 0.43% of 200,000 active; P25779; AID 1478; Potency, µM, without a hit: max response, negative = inhibition, usual class: inhibitors;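 note: plate controls were neutral wells for no effect and buffer without enzyme for full effect; nearly all actives have a fitted effect of over 40% in size; top concentration of the series not given in the record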
Target sequence (P25779 123-467 limits assumed): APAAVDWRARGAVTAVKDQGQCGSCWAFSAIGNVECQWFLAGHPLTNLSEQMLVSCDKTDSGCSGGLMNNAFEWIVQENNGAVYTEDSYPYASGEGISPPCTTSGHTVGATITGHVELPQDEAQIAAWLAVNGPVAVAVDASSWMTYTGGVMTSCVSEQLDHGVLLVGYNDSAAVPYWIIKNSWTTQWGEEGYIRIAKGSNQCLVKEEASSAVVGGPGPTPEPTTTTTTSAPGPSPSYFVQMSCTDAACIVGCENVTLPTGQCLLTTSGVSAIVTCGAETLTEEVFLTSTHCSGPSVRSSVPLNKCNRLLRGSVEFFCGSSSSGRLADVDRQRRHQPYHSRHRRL
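15 min RT preincubation of 1.5 nM cruzain with compound, then 2 uM Z-FR-AMC added; kinetic AMC fluorescence, 60 s delta. Triton X-100 0.01%, pH 5.5.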
Cruzain inh noDet: blocks cruzain activity in detergent-free assay | P25779 | purified cruzain, Z-FR-AMC fluorescence, no detergent | Potency, µM, inactives show max response, negative = inhibition, usual class: inhibitors | 2.3% of 200,000 active;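 note: plate controls were enzyme without inhibitor for no effect and buffer without enzyme for full effect; nearly all actives have a fitted effect of over 40% in size; top concentration of the series not given in the record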
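Detergent-free condition (0.00005% Triton X-100) in acetate buffer pH 5.5 with DTT. 1.5 nM enzyme and compound were pre-mixed 15 min, then 2 uM Z-FR-AMC substrate added; reaction progress from fluorescence change between first and third reads (60 s).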
Marburg entry inh: inhibitors of Marburg virus binding or cell entry | Marburg virus pseudotyped entry inhibition, cell reporter; control for the full effect not named in the record; about a third of the inactives were read at about 46 µM | Potency, µM (doses to about 37.8 µM), without a hit: at the highest dose activity change, negative = inhibition, usual class: inhibitors | 1.8% of 300,000 active | AID 540276; active = well fitted inhibition curve with a large enough effect; inconclusive = small, poorly fitted or top-dose-only effect, or effect the other way; inactive = flat fitted curve, though single readings scatter; tested in HEK293 cells; about a fifth of its hits are not listed in these tables; note: % is set by controls: 0 for no effect and ±100 for the full control effect; luciferase read-out
NS1 function inh: inhibitors of influenza NS1 protein function. S. cerevisiae slowed by influenza A NS1, growth recovery by OD600. Potency, µM (series often up to 46.1 µM), for inactives: at the highest dose activity, positive = more growth. 0.4% of 270,000 active. AID 2326; active means well fitted rising curve with a large enough effect; inconclusive means small, poorly fitted or top-dose-only effect; inactive means no such curve, though single readings can be large or run the other way; note: nearly all actives have a fitted effect of over 50% in size
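A cell-based growth assay was used: compounds that relieve NS1-induced slow growth of budding yeast raise OD600. Assay medium was yeast nitrogen base with ammonium sulphate and -URA supplement, pH 6.0, with 2% galactose.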
* hit, by the source's call; u = inconclusive; x = not tested or not shown; [ ] = remark or other dose. Unless noted, calls come from the whole dose curve; as a rule, active = well fitted curve in the direction sought with a large enough effect; inconclusive = small, poorly fitted or top-dose-only effect, or another doubt; inactive = no such curve, though single readings can be large; an effect the other way counts as inactive or inconclusive. Potency is the fitted concentration of half-maximal effect.

SMILES	Lassa entry inh	RE007 growth inh	2A StopGo	SARS PLP yeast	Cruzain inh Det	Cruzain inh noDet	Marburg entry inh	NS1 function inh
O=C(NCCCN1CCOCC1)c1ccc2c(c1)N(Cc1cccc(Cl)c1)C(=O)c1ccccc1S2	-14%[46.1 µM]	x	-21%	x	-0.2%	9%	x	x
O=C(COC(=O)Cn1nnc2ccccc21)NC1CCCC1	u	8%	-14%	-1%	x	x	-9%[46.1 µM]	-2%
C(=N\Nc1ccc2nncn2n1)/c1ccccn1	u	5%	-7%	-1%	x	x	u	1%
COC(=O)Cn1nnc(N2CCOCC2)n1	-3%	6%	-7%	0%	x	x	9%[46.1 µM]	3%
CN(C)C(=O)CSc1nc(-c2cccs2)c(-c2cccs2)[nH]1	-11%	-5%	6%	0%	x	x	-6%	18%
COc1ccc(-c2cc(C(F)(F)F)n3nc(C(=O)O)cc3n2)cc1OC	5%	-2%	-6%	-8%	0.8%	-8%	0%[46.1 µM]	5%
O=C(CSCc1ccccc1Br)N/N=C/c1ccc2c(c1)OCO2	17%	15%	24%	-35%	-3.8%	-8%	u	-24%
CCN(Cc1ccccc1)C(=O)CN1C(=S)NC(C)(C)CC1C (stereo not given)	9%	-9%	-18%	1%	1.3%	-10%	1%	6%
CC(C)C(=O)NC(=S)Nc1ccccn1	26%	14%	4%	16%	-1.5%	-1%	u	-4%
COc1cc(C(=O)NCCCNc2nc3cc(C)cc(C)c3cc2C#N)cc(OC)c1OC	-4%	-3%	-14%	-5%	-3.5%	u	-21%	-32%
O=C(CCc1ccccc1F)N1CCN(c2ccccc2)CC1	x	-4%	-8%	0%	x	x	x	-2%
Cc1cc(C)cc(NC(=O)Nc2ccc3c(c2)CCC3)c1	x	13%	3%	4%	x	x	x	3%
CCC(=O)N(Cc1ccco1)c1nc(-c2ccc(OC)cc2)cs1	u	-7%	-3%	8%	-4.2%	-7%	-23%	6%
Cc1c(CC(=O)N2C[C@H]3C[C@@H](C2)c2cccc(=O)n2C3)c(=O)oc2cc3occ(C(C)(C)C)c3cc12	x	-7%	-24%	-7%	x	x	x	-11%
COc1cc(O)c2c(=O)cc(-c3ccccc3)oc2c1	x	8%	32%[activator]	-1%	1.9%	-6%	x	-1%
CC(C)(C)CC(=O)Nc1nnc2n1CCS2	-7%[46.1 µM]	x	-12%	x	1.0%	5%	x	x
CCOC(=O)c1cc(-c2ccc(C)cc2)n(CCCC(=O)Nc2cc(C)ccc2C)c1	5%[46.1 µM]	x	-8%	x	0.1%	-3%	x	x
CCOC(=O)/C(=C/c1ccc(F)cc1)NC(C)=O	21%	11%	-11%	2%	2.4%	16%	13%	6%
CCn1c(Cc2c(C)[nH]c3ccccc23)nnc1SCC(=O)NCc1ccco1	3%	-5%	-14%	u	-1.6%	-1%	u	5%
Cc1nn(-c2ccccc2)c(N)c1C1(O)C(=O)Nc2ccccc21 (stereo not given)	x	2%	-6%	-1%	x	x	x	3%
CCCCCn1c(=S)[nH]c2ncccc2c1=O	-3%	5%	-8%	2%	2.0%	u	-3%	-4%
Cc1cccc(NC(=O)c2sc3nc(-c4ccc(F)cc4)cn3c2C)n1	2%	-12%	-14%	5%	-5.7%	u	u	-9%
CC(C)CN(Cc1c(O)ccc2ccccc12)CC(C)C	0%	-27%	-11%	-1%	x	x	u	0%
CCOC(=O)N1CCN(S(=O)(=O)c2ccc3c(c2)CCN3C(=O)C2CC2)CC1	u	-1%	0%	-3%	1.5%	-3%	-14%	-19%
COc1cc([N+](=O)[O-])ccc1NC(=O)CSc1nc2ccccc2n1-c1ccccc1	-1%	x	x	8%	-2.4%	13µM*	4%	-25%
COC(=O)c1sc(NC(=O)CSc2nnc(C(C)C)n2C)nc1C	2%	2%	-16%	2%	-4.0%	3%	-2%	-4%
COc1ccc(CCNC(=O)COc2ccc(C)nc2[N+](=O)[O-])cc1	x	14%	1%	-1%	x	x	x	-6%
CN(c1ccc(OCC(=O)N2CCN(C/C=C/c3ccccc3)CC2)cc1)S(=O)(=O)c1cccs1	x	14%	u	0%	x	x	x	-4%
CC(NC(=O)c1cncc(Br)c1)c1ccc(S(N)(=O)=O)cc1 (stereo not given)	9%	11%	8%	-8%	0.1%	-3%	29%	-1%
COc1ccc(CNC(=S)Nc2ccc(Br)cc2)cc1	-20%	0%	36%[activator]	10%	x	x	7%	5%
CC1(C)SC(=Nc2ccccc2)N(S(=O)(=O)c2ccccc2)C1=O	-13%	17%	-13%	12%	-0.2%	1%	u	3%
C=CCn1c(C)nnc1SCC(=O)Nc1nc(C)c(C(=O)N(C)C)s1	x	-13%	6%	3%	x	x	x	4%
COc1cc(-c2nnc(SCc3cccnc3)n2C)cc(OC)c1O	1%	7%	14%	10%	4.5%	5%	15%	-1%
O=C(CO/N=C/c1ccc(OC(F)F)cc1)NCc1cccs1	-9%	-5%	0%	3%	-1.4%	-6%	u	-21%
CN(C)S(=O)(=O)c1ccc(Cl)c(C(=O)Nc2cccc([N+](=O)[O-])c2)c1	x	-3%	u	0%	x	x	x	-5%
CCC1CCCCN1C(=O)CSc1nnc(CNC(=O)c2cc(OC)c(OC)c(OC)c2)o1 (stereo not given)	-2%	-7%	-9%	14%	-2.2%	5%	-3%[46.1 µM]	-5%
CCOC(=O)c1ccc(NC(=O)c2nc[nH]c2C(=O)N[C@@H](C)C(=O)OC(C)(C)C)cc1	x	-5%	-27%	1%	x	x	x	10%
O=C(Cc1ccc(Br)cc1)OCC(=O)c1ccc[nH]1	-4%	12%	0%	-3%	x	x	-5%	x
CC(=O)Nc1ccc(NC(=O)CSc2nnc(C)c(=O)n2N)cc1	0%	-4%	-5%	0%	x	x	8%[46.1 µM]	2%
Cc1ccn2c(Nc3ccc4c(c3)OCCO4)c(-c3cccs3)nc2c1	27%[46.1 µM]	x	29%	x	-13%	u	1%[46.1 µM]	x
CC(C)NC(=S)N/N=C/C1=CCC2CC1C2(C)C (stereo not given)	u	x	-28%	-32%	-15%	6%	u	-2%
CCCc1cc(=O)[nH]c(SCCOc2ccc(OCC)cc2)n1	-14%	-15%	0%	23%	-1.5%	-9%	-4%	-3%
COc1cc(CC(=O)NCC(C)(C)N2CCOCC2)cc(OC)c1OC	1%	3%	5%	-1%	x	x	9%	-1%
COc1cccc(NC(=O)NC2CCCCCCC2)c1	u	-7%	51%[activator]	-10%	x	x	20%[46.1 µM]	-58%
O=C1OCCC1Sc1nc2ccccc2c(=O)n1Cc1ccccc1 (stereo not given)	12%	2%	0%	-2%	x	x	-13%[46.1 µM]	x
CC/C(O)=C1\C(=O)CC(C)(C)CC1=NCCc1nc2ccccc2[nH]1	u	-28%	u	-6%	x	x	u	x
O=P(Cc1ccncc1)(c1ccccc1)c1ccccc1	-2%	-10%	-20%	2%	1.3%	-8%	0%	2%
CCOC(=O)Nc1sc(=S)n(C)c1C	u	-7%	-7%	12%	-6.9%	0%	13%	7%
CCOC(=O)[C@@H]1[C@H]2COc3ccc(Br)cc3[C@@H]2N2C(=O)N(c3ccc(F)cc3)C(=O)[C@]12C	x	4%	-24%	6%	x	x	x	22%
CC(SCc1ccccc1)C(=O)N/N=C/c1ccc2c(c1)OCO2 (stereo not given)	u	-1%	-1%	3%	-0.2%	-3%	-4%	-17%
COc1ccc2c(c1)sc1ncc(C(=O)NCc3ccc(Cl)cc3)c(=O)n12	x	x	-4%	x	-1.2%	-1%	-2%[46.1 µM]	x
CCN1CCN(CCCNC(=O)c2ccc3c(c2)N(Cc2ccc(C)cc2)CCS3)CC1	x	5%	-5%	10%	x	x	x	-3%
O=[N+]([O-])c1[nH]cnc1Br	17%[46.1 µM]	-10%	21%	x	x	x	-23%[46.1 µM]	x
COc1ccc(N2CCN(C(CNC(=O)C(=O)NC3CC3)c3ccco3)CC2)cc1 (stereo not given)	u	6%	-1%	1%	x	x	u	x
Cc1ccccc1NC(=O)c1ccccc1NC(=O)c1ccco1	4%	-2%	8%	-1%	1.3%	-3%	18%[46.1 µM]	-23%
Nc1ccc(CCn2ccnc2)cc1	0%[46.1 µM]	-18%	-1%	-1%	x	x	-15%[46.1 µM]	9%
CC1CCN(S(=O)(=O)N2CCCC(C(=O)NCc3ccc(F)cc3)C2)CC1 (stereo not given)	-16%	2%	-18%	0%	x	x	-6%[46.1 µM]	-6%
CC(C)(C)c1ccc(C(=O)OCC(=O)Nc2sc3c(c2C#N)CCC3)cc1	0%	1%	-8%	6%	0.9%	u	u	3%
CN(C)C(=O)CSc1nc2ccc(N3C(=O)c4ccccc4C3=O)cc2s1	x	-19%	1%	0%	x	x	x	-3%
C[C@@]12CCC=C[C@H]1[C@H](c1ccc(/C=C/c3ccccc3)cc1F)N(Cc1ccccc1)C2=O	x	-1%	0%	-2%	x	x	x	20%

Next section:
SMILES	Lassa entry inh	RE007 growth inh	2A StopGo	SARS PLP yeast	Cruzain inh Det	Cruzain inh noDet	Marburg entry inh	NS1 function inh
COc1ccccc1OCc1ccc(C(=O)NCc2ccco2)o1	u	-12%	6%	2%	7.2%	4%	0%	-9%
O=C1CSC(c2ccc(Cl)cc2)N1Nc1nc(N2CCOCC2)nc(N2CCOCC2)n1 (stereo not given)	u	2%	-14%	0%	x	x	-21%	4%
O=C(N/N=C/c1ccncc1)c1cc(C2CC2)nc2ccccc12	11%	-10%	1%	-3%	x	x	6%[46.1 µM]	-10%
CCOc1ccc(CCNC(=O)c2ccc(CNS(=O)(=O)c3ccccc3)cc2)cc1OCC	-16%	0%	28µM*	6%	-3.2%	16%	u	21%
Cc1cc(=O)n2nc(N(C)CC(=O)NCc3ccc(Cl)cc3)sc2n1	25%[46.1 µM]	x	3%	x	0.3%	-2%	20%[46.1 µM]	x
C=C(C)COc1ccc2c(C)c(CCC(=O)N3C[C@H]4C[C@@H](C3)c3cccc(=O)n3C4)c(=O)oc2c1	x	13%	-15%	-3%	x	x	x	-15%

Compounds as they come, and some 4.7% of all compounds hit somewhere here.
